miR-21 FLuc: miR-21 reporter, rising signal; 340,000 tested, under 10 active; Potency, µM (doses to about 38.3 µM), inactives show at the top dose reporter change, positive = more light; HeLa miR-21 FLuc reporter, luciferase, 48 h; active = well fitted rising curve with a large enough effect; inconclusive = small, poorly fitted or top-dose-only effect; inactive = no such curve, though single readings can be large or run the other way;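 also: % of control where 0% means no effect; miR-21 action dims this reporter so a rising signal means less miR-21 action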
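HeLa cells endogenously expressing miR-21, stably carrying CMV-driven firefly luciferase with a downstream miR-21 binding site, 2000 cells/well. Titrations up to approximately 40 uM, 48 hours; luciferase luminescence read.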
Rango-impB inh: prevents formation of the Rango-importin beta complex. AID 540263. 340,000 compounds, 0.031% hits. Potency, µM (top dose mostly 92.2 µM), inactives show top-dose inhibition of complex formation. Rango CFP/YFP FRET sensor + importin beta, 45 min. Q14974; active = rising FRET ratio curve, often small or poorly fitted; inconclusive = mostly compound fluorescence or quenching in the first reads; inactive = flat curves in all reads;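 also: potency is read from the fitted curve at half-maximal effect; 0% = DMSO wells and 100% = buffer wells lacking importin beta; nearly all actives have a fitted effect of over 15% in size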
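FRET biosensor Rango (snurportin 1 IBB between N-terminal EYFP and C-terminal Cerulean), 50 nM in PBS/1 mM DTT/0.02% Tween-20/0.1% BSA, preincubated 5 min RT with compound; 0.125 microM importin beta added, 45 min RT, CFP/YFP FRET ratio read.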
Rango release inh: inhibitors of RanGTP-induced Rango-importin beta complex dissociation | Potency, µM (series often up to 46.1 µM), without a hit: at the top dose activity change, negative = inhibition | AID 540253 | Biochemical FRET Rango-importin beta, RanGTP-induced dissociation | 340,000 compounds, 0.071% hits | O95149+P62826; active means falling FRET ratio curve, often poorly fitted, with flat reads before Ran was added; inconclusive means other falling curves, or compound fluorescence or quenching; inactive means flat or rising ratio curve;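 also: potency is read from the fitted curve at half-maximal effect; % of control where 0% means no effect; nearly all actives have a fitted effect of over 45% in size; -100% = wells without RanGTP and RCC1; the record marks most hits as doubtful in a second field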
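Rango/importin beta premix (0.1/0.25 uM final), PBS + 1 mM DTT + 0.02% Tween-20 + 0.1% BSA; cpd 5 min RT; FRET pre-read; + RanGTP-RCC1 (0.6 uM Ran, 2 mM GTP, 0.2 uM RCC1); 45 min RT; FRET post-read, ex 430, em 486/530 nm.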
GLA inh pH 4.5: inhibitors of human alpha-galactosidase A at pH 4.5; P06280; purified enzyme, 4-MU-alpha-Gal fluorescence, pH 4.5; activity change, negative = inhibition, % at 105 µM; 230,000 tested, under 10 active; AID 1467; inconclusive = small, poorly fitted or top-dose-only inhibition, or a rising curve; inactive = flat fitted curve, though single readings scatter; no compound was filed as active;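 also: 0% = full activity with enzyme and -100% = basal without enzyme; dose as in the result columns while the protocol names 77 µM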
Target sequence (P06280 whole entry, looked up): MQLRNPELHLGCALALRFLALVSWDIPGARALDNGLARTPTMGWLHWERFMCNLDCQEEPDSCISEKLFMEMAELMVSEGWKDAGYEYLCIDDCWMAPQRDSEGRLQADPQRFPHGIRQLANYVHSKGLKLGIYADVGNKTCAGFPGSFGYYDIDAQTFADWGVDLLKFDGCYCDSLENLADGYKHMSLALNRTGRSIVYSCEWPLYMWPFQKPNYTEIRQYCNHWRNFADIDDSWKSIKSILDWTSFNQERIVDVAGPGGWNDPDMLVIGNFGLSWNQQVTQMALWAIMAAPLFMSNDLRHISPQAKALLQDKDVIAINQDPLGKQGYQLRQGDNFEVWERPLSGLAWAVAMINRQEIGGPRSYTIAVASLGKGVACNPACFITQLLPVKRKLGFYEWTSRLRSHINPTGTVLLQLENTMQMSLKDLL
* = called active by the depositor; ? = inconclusive; · = not tested or not shown; [ ] = remark or other dose.

Values run as follows: Rango release inh	GLA inh pH 4.5	miR-21 FLuc	Rango-impB inh
NC(=O)c1cc([N+](=O)[O-])ccc1N1CCN(Cc2ccccc2)CC1
    -1%	·	4%	-0.1%
COc1ccc(CNc2nc(-c3cccnc3)nn2C(C)=O)cc1
    25%	4[21.1 µM]	-5%	-0.9%
CCCCC(=O)N1CCN(c2nc3ccc(Cl)cc3s2)CC1
    -8%	·	-21%	-1.3%
CCN(Cc1ccccc1)C(c1ccccn1)c1nnnn1C(C)(C)CC (stereo unspecified)
    1%	4	-9%	1.8%
COc1cc(-c2nc(-c3cccc(C)c3)no2)cc(OC)c1OC
    -2%	0	-17%	-4.2%
O=C(CN(C(=O)c1csnn1)c1ccccc1C(F)(F)F)NC1CCCCC1
    9%	·	-2%	0.7%
c1cncc(C(c2nnnn2C2CCCCC2)N2CCCCC2)c1 (stereo unspecified)
    -7%	4	2%	0.8%
CN(c1ccc(OC(=O)CC2OC(=O)c3ccccc32)cc1)S(=O)(=O)c1ccccc1 (stereo unspecified)
    14%	·	·	-0.3%
CCc1ccc(NC(=O)COc2coc(CN3CCc4ccccc4C3)cc2=O)cc1
    16%	·	·	0.1%
COc1ccc(C(CNC(=O)C2CC(=O)N(Cc3ccc(C)cc3)C2)N(C)C)cc1 (stereo unspecified)
    1%	9	-12%	-3.2%
CCOc1nc2cnccc2n(CC(=O)Nc2ccc(C)c(C)c2)c1=O
    6%	·	-3%	1.4%
CCCCn1c(N)c(N(CC(C)C)C(=O)C2=NN(c3cc(C)ccc3C)C(=O)CC2)c(=O)[nH]c1=O
    -6%	·	·	0.9%
O=C(CCN1C(=O)c2ccccc2S1(=O)=O)NCc1ccccc1
    0%	·	·	2.3%
CC(=O)Nc1ccccc1C(=O)N1CCN(Cc2ccccc2)CC1
    -12%	1	5%	-1.5%
COC(CNc1cc(=O)oc2ccccc12)OC
    -11%	9	1%	?
CCN(CC)C1CCN(C(=O)c2cc(COc3cccc4cccnc34)on2)C1 (stereo unspecified)
    2%	·	-2%	-2.4%
Cc1ccc(NC(=O)c2noc(C(C)C)c2[N+](=O)[O-])cc1
    5%	4[21.1 µM]	-7%	0.6%
O=c1nc(N/N=C/c2c[nH]c3ccccc23)cn[nH]1
    27%	-6	-45%	-2.1%
COc1ccc(CCNC(=O)c2cc3sc(Cl)cc3n2C)cc1OC
    -2%	-10	-8%	5.4%
Cc1ccccc1C(=O)c1cn[nH]c1-c1ccccc1O
    1%	·	-11%	6.4%
COC(=O)Cn1nnc(-c2cccc(OC)c2)n1
    16%	5	-5%	0.4%
CN(CC(=O)Nc1ccccc1Cl)C(=O)COC(=O)C1CC1
    5%	·	·	3.3%
N#CCSc1nnc(-c2c[nH]c3ccccc23)o1
    -13%	·	-7%	0.3%
COc1ccc(NC(=O)COc2ccccc2C)cc1S(=O)(=O)N1CCCCC1
    25%	·	·	6.5%
Cc1ccc(-n2ncc3c(=O)n(CC(=O)NCc4ccco4)cnc32)cc1
    0%	3	1%	4.2%
Cc1ccc(S(=O)(=O)CCCS(=O)(=O)c2ccc(C)cc2)cc1
    -9%	-26	0%	-2.0%
Cn1c(C(=O)NCc2ccco2)cc2c(=O)[nH]c3ccccc3c21
    10%	-4	-18%	4.3%
CCOC(=O)c1sc(=NC(=O)c2cccc(OC)c2)n(C)c1C
    -8%	-1	-46%	-5.6%
COc1ccc(-c2nc(NC(=O)Cn3ccc(C(F)(F)F)n3)sc2C)cc1
    -3%	1	21%	-2.3%
O=C1C=C(c2ccc3c(c2)OCO3)C[C@@H](c2ccc3c(c2)OCO3)C1
    1%	·	·	-0.8%

Following part.
Values run as follows: Rango release inh	GLA inh pH 4.5	miR-21 FLuc	Rango-impB inh
CCn1c(CSCc2c(Cl)cccc2Cl)n[nH]c1=S
    0%	4	0%	3.0%
COc1ccccc1NS(=O)(=O)c1cc(NC(C)=O)ccc1N1CCCCC1
    8%	-7	-6%	-0.7%
Cc1cccc(C)c1NC(=O)COC(=O)CN1C(=O)C2CCCCC2C1=O (stereo unspecified)
    1%	·	·	0.8%
CCCCn1nc(NC(=O)COC)c2cc3cc(OC)ccc3nc21
    ?	·	-14%	?
COc1cccc(C(=O)Nc2cccnc2)c1
    1%	-4	-17%	0.6%
OCCCc1cn(Cc2ccccc2)c2ccccc12
    4%	·	-7%	0.7%
COc1ccc(CCNC(=S)NC(=O)c2cc(OC)c(OC)c(OC)c2)cc1OC
    15%	-4	-1%	-2.5%
Nc1nc(-c2ccccc2)c(N=Nc2cccnc2)s1
    -12%	-12	17%	-2.6%
Cc1ccc(NC(=O)Cc2cn(C)c3ccccc23)cc1F
    12%	-17	-19%	-0.4%
C=CCn1c(O)c(CN2CCOCC2)c(C)c(C#N)c1=O
    ?	9	-39%	?
O=C(CNS(=O)(=O)c1ccc(Br)cc1)N1CCOCC1
    -6%	7	-3%	-0.4%
Cc1cccc(OCc2nnc(SCC(=O)Nc3ccc(C)c(C)c3)o2)c1
    -1%	4	-7%	1.5%
COc1cccc(-c2csc(N3CCN(C(=S)NCC(C)C)CC3)n2)c1
    1%	·	10%	3.2%
CCOC(=O)N1CCN(C2OC(=O)c3ccccc32)CC1 (stereo unspecified)
    27%	6	-12%	1.6%
CCOC(=O)c1c(-n2cnnn2)sc(C)c1C
    11%	4	-7%	0.8%
CCOc1ccccc1NC(=O)CSc1nnc(CNC(=O)c2c(F)cccc2Cl)o1
    -3%	·	-1%	0.3%
Cc1ccc2c(c1)C1CN(C)CCC1N2Sc1ccccc1[N+](=O)[O-] (stereo unspecified)
    15%	-3	16%	1.0%
Cc1ccc(-c2nn(C)c(=O)c3ccccc23)cc1CN1CCCCC1
    -9%	-6	-1%	0.0%
Cn1cc(S(=O)(=O)N2CCCC2)cc1C(=O)NCc1ccccc1
    7%	·	-4%	-1.9%
O=C(CSCc1ccc(C(=O)O)cc1)Nc1ccc2ccccc2c1
    1%	8	-6%	2.3%
COc1ccccc1-c1cc(C(=O)Nc2ccc(F)cc2F)no1
    9%	2	-27%	-3.2%
COc1ccc(-c2noc(CCC(N)=O)n2)cc1OC
    -3%	4	-11%	-1.0%
COc1ccc(S(=O)(=O)N2CCN(CCC(=O)Nc3ccc(F)cc3)CC2)cc1
    1%	-7	9%	-1.0%
CCCCN(Cc1ccccc1)c1ncnc2nc[nH]c12
    -9%	3	-40%	-3.6%
CCOC(=O)N1CCC(=NNC(=O)c2ccc(O)cc2)CC1
    -23%	2	-22%	-3.1%
CCn1c(C)nc2cc(S(=O)(=O)Nc3ccc(C)cc3)ccc21
    -1%	7	2%	-1.7%
CCCCn1c(N)c(N(CC(C)C)C(=O)c2ccc(-n3c(C)ccc3C)cc2)c(=O)[nH]c1=O
    0%	·	·	?
O=S(=O)(c1ccc(-c2ccon2)s1)N1CCOCC1
    16%	-12	-5%	7.3%
CC(NCC(=O)NCC(=O)Nc1ccc(F)cc1)c1cccc(C(F)(F)F)c1 (stereo unspecified)
    1%	·	·	-0.1%
N#C/C(=C\c1cccs1)c1nc2ccccc2[nH]1
    -15%	-21	-49%	?

More results.
Values run as follows: Rango release inh	GLA inh pH 4.5	miR-21 FLuc	Rango-impB inh
CCc1ccccc1NC(=O)Cn1nnc(-c2cccnc2)n1
    -4%	3	-8%	-3.2%
Nc1cc2c(cc1Br)[nH]c(=O)c1ccccc12
    6%	·	·	-4.7%
COc1ccccc1N1CCN(C(=O)CSc2nnc(NC(=O)c3ccco3)s2)CC1
    -3%	2	-10%	-1.3%
COCC(=O)NCCNc1nc2ccc(C)cc2cc1C
    -16%	-2	-21%	-1.0%
COc1ccc(NC(=S)Nc2ncccc2C)cc1OC
    -24%	0	-70%	2.9%
Oc1ccc2nnc3c(Br)cnn3c2c1
    ?	·	-3%	?
COc1ccc(C(=O)N2CCN(CCNC(=O)C(=O)Nc3ccc(Br)cc3)CC2)cc1
    -6%	·	1%	-0.3%
CCCCNC(=O)CCn1nc(-c2ccc(Cl)cc2)ccc1=O
    -1%	·	-6%	-1.2%
Cn1ccc(CC(=O)N2CCC(N3CCC(C(=O)N4CCCC4)CC3)CC2)c1
    9%	-3	-10%	?
Cc1c(Cl)cccc1NC(=O)Cn1c(CCC(=O)O)ccc1-c1ccccc1
    1%	·	3%	0.4%
CC(=O)Nc1ccc(N=Cc2ccc[nH]2)cc1
    2%	-1	-10%	0.0%
Cc1ccc(C(C)C)c(OCCCN2C(=O)NC(C)(C)C2=O)c1
    8%	-5	0%	2.0%
C=CCn1c(SCC(=O)Nc2nc(C)cs2)nnc1C(C)NC(=O)c1ccccc1Cl (stereo unspecified)
    7%	-3	-5%	4.4%
CCCC1C(=O)N(Cc2ccccc2)C(=O)CC1C (stereo unspecified)
    15%	1	-3%	0.0%
CC1=CC(C#N)(C#N)C(C#N)(C#N)C(c2ccccc2)N1 (stereo unspecified)
    ·	9	-1%	·
Cc1ccc2nc(NC(=O)C3CSC4(C)CCC(=O)N34)sc2c1 (stereo unspecified)
    7%	·	·	1.9%
CC1=CC(C)(C)N=C(Nc2nc(C)c3cc(C)cc(C)c3n2)N1
    -3%	-6	9%	0.8%
CCO[C@@H]1OC(C(=O)N2CCN(Cc3ccc4c(c3)OCO4)CC2)=C[C@H](C2CCCCC2)[C@H]1CCCO
    1%	-19	20%	-1.8%
CCCn1cnc2scc(-c3ccc(OC)cc3)c2c1=O
    17%	·	-6%	4.0%
C=CCC[C@@H](Cc1ccc(F)cc1)C(=O)OC[C@@H](NC(=O)[C@H](CC=C)CC(=O)N(CCO)Cc1ccccc1)c1ccccc1
    -10%	·	·	0.0%
CCOC(=O)N1CCN(CC(=O)c2ccc(O)cc2O)CC1
    -4%	·	-1%	1.7%
CN1CCN(CC#CCC(O)(c2ccccc2)c2ccccc2)CC1
    43%	-10	-5%	3.9%
NNC(=O)c1ccc(COc2cccc3ccccc23)cc1
    2%	-2	-10%	1.7%
COCCN1C(=O)/C(=C/c2ccc(Oc3ccc([N+](=O)[O-])cn3)c(OC)c2)SC1=Nc1ccccc1
    -12%	-16	-3%	-0.3%
Cc1ccc(/C=C2/NC(=O)N(Cc3ccc(Br)cc3)C2=O)o1
    -14%	6	12%	?
Cc1cc(C)cc(-n2ccnc2SCC(=O)c2c(N)n(C3CC3)c(=O)[nH]c2=O)c1
    1%	·	·	-1.1%
Cc1nn(CC(=O)NCCc2cccs2)c(=O)c2cc3ccccc3n12
    4%	·	3%	0.2%
CC(C)(C)N1[C@@H](CC(=O)O)c2cc(C(F)(F)F)ccc2S1(=O)=O
    0%	·	·	-0.5%
COc1ccc(-c2cc3nc(C)n(N)c(=O)c3s2)cc1
    -5%	7	?	-3.2%
O=C(CN1CCCC1)NCC1(c2ccccc2)CCOCC1
    -6%	-4	0%	-0.6%

Further compounds.
Values run as follows: Rango release inh	GLA inh pH 4.5	miR-21 FLuc	Rango-impB inh
Cc1ccc(S(=O)(=O)N2CCC(C(=O)OCC(=O)N(C)Cc3ccccc3)CC2)cc1C
    ?	·	·	1.6%
CC(C)c1nnc(NC(=O)c2cccc(-n3cnnn3)c2)s1
    0%	1	-22%	-0.6%
CC(NC(=O)C(=O)NCCN1CCN(C(=O)c2ccc([N+](=O)[O-])cc2)CC1)c1ccccc1 (stereo unspecified)
    9%	·	11%	-2.6%
O=P(/C(=N/O)Sc1ccccc1)(N1CCOCC1)N1CCOCC1
    -8%	4	4%	-0.7%
Cn1c(SCC(=O)C(C)(C)C)nnc1-c1ccc(F)cc1
    37%	2	-27%	0.1%
Cc1ccc(NC(=O)C2Cc3ccccc3CN2C(=O)c2ccco2)cc1S(=O)(=O)N(C)C (stereo unspecified)
    13%	·	-37%	-0.5%
CCN(CC)C(=O)CSc1nnc([C@H](CCSC)NC(=O)OC(C)(C)C)o1
    5%	0	-8%	-0.8%

Bioassay records (PubChem BioAssay)

This is a subset. The share of hits here may be higher or lower than overall.
